rRNA inh HTS: inhibits bacterial ribosomal RNA function over humanized ribosomes | E. coli WT GFP vs humanized-ribosome RFP mutants, fluorescence, 24 h; active compounds read low; DMSO median 0, no signal -100 | GFP signal change (wild-type ribosome), % (no concentration beside the values) | hit rate 1.6% among 350,000 | AID 720706;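 active means significant combined selectivity score with lowered wild-type GFP, culture density cut under 30%, mutant RFP and density less affected; inactive means any of these conditions unmet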; further: one replicate is shown; some compounds called inactive have numbers as strong as hits
UCH37 DUB inh: human UCH37 deubiquitinating enzyme inhibition. purified proteasome/UCH37, Ub-AMC cleavage fluorescence. hit rate 0.33% among 330,000. AID 588478. Q9Y5K5. inhibition, % (concentration not given with the values);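 active means mean of two replicates above 20%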;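 further: 0% = compound-free wells with enzyme and 100% = wells lacking proteasome; stock transfer was 100 nL into about 20 µL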
Target sequence (Q9Y5K5 whole entry, looked up): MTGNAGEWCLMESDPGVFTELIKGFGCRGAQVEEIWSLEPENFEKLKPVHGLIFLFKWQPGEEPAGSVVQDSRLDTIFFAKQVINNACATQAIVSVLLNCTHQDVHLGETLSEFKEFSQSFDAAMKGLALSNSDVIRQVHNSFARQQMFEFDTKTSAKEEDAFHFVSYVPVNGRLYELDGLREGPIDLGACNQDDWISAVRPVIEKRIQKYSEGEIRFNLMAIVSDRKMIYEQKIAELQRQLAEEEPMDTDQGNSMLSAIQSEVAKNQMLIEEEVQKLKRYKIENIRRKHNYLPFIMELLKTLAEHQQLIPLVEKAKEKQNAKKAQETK
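Material: Human UCH37 enzyme supplied as purified proteasome complex | Schedule: 30 min compound-proteasome preincubation then 25 min substrate reaction, room temperature | Detection: AMC fluorescence from Ub-AMC cleavage, excitation 355 nm, emission 460 nm | Benchmarks: Wells without proteasome as full block, compound-free enzyme plus substrate as uninhibited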
Bfl-1 A1 inh: inhibitors of the anti-apoptotic protein A1, read as caspase activation. hit rate 0.066% among 330,000. MEF A1-2A-BIM cells, Caspase-Glo 3/7 luminescence, 3 h; percent of clofoctol response, vehicle zero. AID 2462. caspase activation, % (concentration not given with the values);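 active means over half of replicate activation scores above 10%, or exactly half above 10 with the replicate mean above 10; inconclusive means replicate mean below 10 yet half the replicates above 10; inactive means over half of replicates below 10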;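 further: wells of about 30 µL received 50 nL stock; many hits fall short of the cut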
Beta cell apopt: beta cell apoptosis inhibition; INS-1E cytokine-induced death, ATP luminescence, 48 h; percent of positive-control rescue, neutral wells zero; protection from apoptosis, % (concentration not given with the values); hit rate 0.8% among 300,000;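 active means all replicates at 75% or more, or half of them and the mean; inconclusive means half reach 75% but not the mean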;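 further: 0% = cytokine-treated negative control wells and 100% = positive control rescue; higher means more ATP so stronger rescue from cytokine killing; wells of about 40 µL received 100 nL stock; the first replicate is given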
E coli growth: E. coli growth inhibition | Escherichia coli growth, OD600, 23 h; active compounds read low | hit rate 0.21% among 330,000 | OD600 absorbance (concentration not given with the values);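 active means OD600 absorbance below the run mean of sample wells minus 3.6 SD, in any replicate, cut at about 0.56 in these data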;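 further: stock transfer was 300 nL into about 60 µL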
MLL AF4-AF9 inh: inhibitors of human MLL-AF4/AF9 interaction; AlphaScreen, biotin-AF4 peptide binding to FLAG-AF9; inhibition, % at 10 µM; hit rate 0.47% among 350,000;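 active means every replicate reaching a set inhibition limit, whatever the replicate mean, cut at about 25% in these data; inconclusive means mean inhibition reaches that limit but some replicates miss it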;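 further: 0% = plate neutral control median and 100% = total signal loss; the record names both 10 and 1 µM as test concentration; the first replicate is given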
Target sequence (P42568 whole entry, looked up): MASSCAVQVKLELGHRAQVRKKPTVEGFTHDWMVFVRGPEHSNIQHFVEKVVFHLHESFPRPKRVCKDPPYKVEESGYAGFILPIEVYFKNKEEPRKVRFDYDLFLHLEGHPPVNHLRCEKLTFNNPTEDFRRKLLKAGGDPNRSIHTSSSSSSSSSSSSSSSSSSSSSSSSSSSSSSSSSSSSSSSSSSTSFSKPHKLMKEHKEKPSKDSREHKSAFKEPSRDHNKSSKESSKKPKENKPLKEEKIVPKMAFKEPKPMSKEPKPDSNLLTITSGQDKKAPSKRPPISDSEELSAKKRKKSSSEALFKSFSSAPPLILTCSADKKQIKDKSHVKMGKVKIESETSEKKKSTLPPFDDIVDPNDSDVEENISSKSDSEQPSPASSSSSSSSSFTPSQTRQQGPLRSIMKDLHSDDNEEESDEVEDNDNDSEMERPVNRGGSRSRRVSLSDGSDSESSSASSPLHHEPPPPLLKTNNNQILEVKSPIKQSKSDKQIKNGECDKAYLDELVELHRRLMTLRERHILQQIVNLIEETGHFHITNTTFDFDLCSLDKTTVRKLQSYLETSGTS
FGF22 binding: binders of recombinant human FGF22 by thermal shift | SYPRO orange fluorescence; percent of sucrose octasulfate shift, DMSO zero | hit rate 1.5% among 340,000 | Q9HCT0 | AID 651658 | calls only at 9.99 µM;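 active means melting point raised past a set limit in the mean and every replicate; inconclusive means no clear call; three in four hits are not shown here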
Target sequence (Q9HCT0 whole entry, looked up): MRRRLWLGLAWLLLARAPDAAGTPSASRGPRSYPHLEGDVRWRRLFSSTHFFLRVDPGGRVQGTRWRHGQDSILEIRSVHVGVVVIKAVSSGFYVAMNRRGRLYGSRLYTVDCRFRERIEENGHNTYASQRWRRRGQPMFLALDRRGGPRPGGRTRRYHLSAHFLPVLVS
T cruzi inh: T. cruzi replication inhibition; AID 1885; T. cruzi beta-gal in NIH3T3, luminescence, 90 h; hit rate 1.4% among 300,000; inhibition, % (test concentration not listed);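 active means mean inhibition across valid replicates above about 55%, limit read from the data; inconclusive means mean below that limit but half or more replicates reach it; inactive means mean below it, under half of replicates reach it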;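 further: signal also drops with host cell toxicity which is not excluded here; 0% = plate median of DMSO wells and 100% = zero luminescence signal; higher percent means less beta-gal luminescence so fewer parasites; stock transfer was 50 nL into about 50 µL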
rRNA inh HTS OD600: also measured in rRNA inh HTS; calls as there; OD600 change, %; measured here: OD600 growth;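 optical density of the mix in the first replicate; 0 = DMSO median and -100 = no signal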
rRNA inh HTS RFP: further read-out of rRNA inh HTS, marked with its call; RFP signal change, %; measured here: RFP humanized mutant strains;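 first replicate; 0 = DMSO median and -100 = no signal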
Active calls of the source: *; i = inactive; ? = inconclusive; nt = not tested or not shown. A portion of the library. The share of hits here may be higher or lower than overall.

SMILES | rRNA inh HTS | rRNA inh HTS OD600 | rRNA inh HTS RFP | UCH37 DUB inh | Bfl-1 A1 inh | Beta cell apopt | E coli growth | MLL AF4-AF9 inh | FGF22 binding | T cruzi inh
O=C(CCCc1ccccc1)Nc1ccnn1C1CCN(Cc2ccccn2)CC1 | 0 | 4 | 1.4 | 2.7 | -0.1 | -2 | 0.72 | -1.8 | i | 5
O=C(NC1CCCCC1)NC1CCN(CC(=O)N2CCOCC2)CC1 | nt | nt | nt | 2.1 | 0.4 | -1 | 0.68 | nt | nt | 0
NC(=O)c1ccsc1NC(=O)CN1C(=O)C2CC=CCC2C1=O (centres undefined) | nt | nt | nt | 2.8 | 1.6 | 3 | 0.72 | nt | nt | -8
O=C(CCc1nnc(CCc2ccccc2)o1)N1CCCC1c1nccs1 (centres undefined) | 8 | 5 | -2.9 | 0.2 | -0.6 | -6 | 0.69 | -1.1 | i | -6
CCC(C)NC(=O)CSc1nc2ccsc2c(=O)n1-c1ccc(OC)cc1 (centres undefined) | nt | nt | nt | 1.9 | -0.7 | 0 | 0.7 | nt | nt | -10
CCC(=O)N(CCO)Cc1cc2ccc(C)c(C)c2[nH]c1=O | nt | nt | nt | -4.1 | 0.6 | -1 | 0.69 | nt | nt | -28
N#Cc1cnc(SCC(=O)Nc2ccccc2C(F)(F)F)nc1N | -1 | 0 | -3.1 | -6.7 | 0.7 | -6 | 0.67 | -1.5 | i | -4
Cc1ccc(C)c(S(=O)(=O)N(C)c2ccc(OC(=O)C3CCN(C(=O)Nc4ccccc4)CC3)cc2)c1 | -9 | -9 | 5.1 | 2.6 | nt | nt | 0.71 | -0.7 | i | nt
O=C(COC(=O)c1cc(-c2ccc(F)cc2)nc2ccccc12)NCC1CCCO1 (centres undefined) | 1 | -3 | -1.2 | -77 | -0.4 | -4 | 0.72 | 2.3 | i | 5
Cc1ccc(C(=O)N[C@H](C(=O)N2CCN(c3ccccc3F)CC2)C(C)C)cc1 | 4 | 0 | 0.9 | 4.8 | 0.5 | -7 | 0.67 | -1.2 | nt | -2
COC(=O)CCCCC(=O)OC | 4 | 3 | -0.1 | -0.5 | -0.7 | -2 | 0.68 | nt | i | nt
O=C(NCc1ccc(OC(F)(F)F)cc1)c1cc(-c2ccccc2)nn1CC1CC(c2cccnc2)=NO1 (centres undefined) | nt | nt | nt | 0.4 | 0.2 | 7 | 0.71 | nt | nt | 33
COc1ccc(CNC(C)C(=O)Nc2ccc3ccccc3c2)cc1OC (centres undefined) | 0 | 3 | -0.6 | -0.2 | 0.9 | -8 | 0.64 | -0.2 | i | -10
Cc1nnc(SCc2cc([N+](=O)[O-])cc3c2OCOC3)[nH]c1=O | 6 | 5 | -1.1 | 1.4 | -1.2 | -9 | 0.71 | -6.4 | i | 7
CSc1nsc(SCC(=O)Nc2cccc(C(C)=O)c2)n1 | nt | nt | nt | 1.9 | 0.0 | -3 | 0.7 | nt | nt | -2
c1coc(CNc2nc3nonc3nc2NCc2ccco2)c1 | nt | nt | nt | 4.0 | -1.6 | -9 | 0.68 | nt | nt | nt
COCCn1c(SCC(=O)NC(=O)NC2CCCC2)nc2ccccc2c1=O | 1 | -16 | 0.3 | 4.5 | 0.0 | -9 | 0.65 | -2.1 | i | nt
N#C/C(=C/c1ccc(-c2cc([N+](=O)[O-])ccc2Cl)o1)C(N)=O | 5 | 2 | 3.3 | 8.0 | -0.4 | 1 | 0.67 | -1.1 | i | -34
CCOC(=O)c1cc(NC(=O)N2CCOCC2)c(C)nc1C | nt | nt | nt | 1.6 | 0.4 | 3 | 0.75 | nt | nt | -17
Cc1ccc(-c2nnc(SCC#N)n2N)cc1 | nt | nt | nt | 3.4 | -0.8 | -7 | 0.71 | nt | nt | -7
Cc1ccc(C(=O)CC(Nc2ccc(F)cc2)c2ccccc2)cc1 (centres undefined) | nt | nt | nt | 0.5 | -0.3 | 3 | 0.71 | nt | nt | 12
Cc1ccc(NC(=O)/C(=C\c2cccnc2)NC(=O)c2ccccc2)cc1 | 0 | 3 | 1.4 | 2.6 | 0.1 | -3 | 0.69 | -1.7 | i | 3
CCOc1cc(C(=O)Nc2cc3c(cc2N2CCCC2)n(C)c(=O)n3C)cc(OCC)c1OCC | -7 | -9 | -1.4 | -76 | -0.8 | -9 | 0.67 | 3.5 | i | 14
COC(=O)c1cc(-c2c[nH]c3ccccc23)n[nH]1 | nt | nt | nt | 1.3 | 0.0 | -6 | 0.7 | nt | nt | 2
CN(C)C(=O)c1ccc(NC(=O)c2ccccc2Sc2ccccc2C#N)cc1 | -7 | -19 | 1.6 | 2.0 | 0.7 | -1 | 0.65 | 1.3 | i | -13
O=C(O)CCc1ccc(-c2ccc(Br)cc2)n1CC(=O)O | 7 | 2 | 3.7 | -6.3 | -0.3 | -1 | 0.7 | -9.5 | i | 7
Cc1c(C(=O)Nc2ccc(Cl)cc2)c2ccccn2c1CCc1ccncc1 | nt | nt | nt | -99 | 0.1 | 12 | 0.63 | nt | nt | 63*
O=C(Nc1ccccc1C(=O)Nc1ccncc1)c1cccc([N+](=O)[O-])c1 | -3 | -2 | -2.8 | 5.0 | 0.3 | 14 | 0.69 | 0.6 | i | 13
CCC(C(=O)N1CCN(c2ccccn2)CC1)n1nc(C)n2c(cc3occc32)c1=O (centres undefined) | nt | nt | nt | -1.3 | 0.4 | -1 | 0.7 | nt | nt | 8
CCOC(=O)N1CCN(C(=O)C(CC)n2nc(C)c3sc4ccccc4c3c2=O)CC1 (centres undefined) | nt | nt | nt | 4.7 | 0.5 | -3 | 0.68 | nt | nt | -3
CCCNS(=O)(=O)c1ccc(CCC(=O)NCc2cccnc2)cc1 | nt | nt | nt | 1.0 | 0.7 | -6 | 0.74 | nt | nt | 0
O=Cc1c(NCc2ccccc2F)c2ccccc2[nH]c1=O | 6 | 7 | 1.1 | 1.5 | -0.7 | -4 | 0.66 | 1.9 | i | -12
Cc1ccc2c(c1)nnn2C1CCN(CC(=O)N2c3ccccc3CC2C)CC1 (centres undefined) | nt | nt | nt | 2.1 | 1.1 | 6 | 0.68 | nt | nt | 19
O=C1Nc2ccccc2C12OCCCCO2 | nt | nt | nt | 3.9 | 1.0 | -4 | 0.75 | nt | nt | -3
COc1cc(C2OC(=O)C3C(c4ccc(OC(C)=O)c(OC)c4)OC(=O)C23)ccc1OC(C)=O (centres undefined) | 17 | 1 | 2.9 | 5.5 | -0.8 | -21 | 0.66 | nt | i | -12
CC(C)NCC(O)COCCOc1ccc(Br)cc1 (centres undefined) | nt | nt | nt | 7.2 | 1.0 | nt | 0.65 | nt | nt | 63*
C#CCOCCOCCOCCNc1nc(N2CCOCC2)nc(N2CCN(C(=O)CCCCCCCCCCNC(=O)[C@H](CO)n3cc(CCCSC)nn3)CC2)n1 | -12 | -15 | 24 | 4.5 | -0.5 | 1 | nt | 2.8 | i | nt
CC(=O)Nc1ccc(C(=O)NNS(=O)(=O)c2ccc(C)cc2)cc1 | 11 | 9 | 1.3 | 0.4 | -0.5 | nt | 0.67 | -4.4 | i | -11
CN(c1ccc([N+](=O)[O-])cc1C(=O)Nc1ccccc1)C1CCCCC1 | -15 | -36 | -2.3 | 6.1 | 0.4 | 0 | 0.74 | 10 | i | 22
c1ccc(-c2ccc(-c3csnn3)cc2)cc1 | nt | nt | nt | 1.6 | -7.3 | 2 | 0.79 | nt | nt | -12
CCOC(=O)CCNC(=O)CNC(=O)OCc1ccccc1 | nt | nt | nt | 4.9 | -0.2 | 1 | 0.69 | nt | nt | -5
CC(=O)c1ccc(S(=O)(=O)NCCCC(=O)N(C)Cc2ccc3c(c2)OCO3)cc1 | -2 | 1 | -1.8 | 1.1 | 1.2 | 0 | 0.72 | -2.2 | i | nt
CCN(Cc1nc2cc(Cl)ccc2c(=O)[nH]1)C(=O)c1cccc(OCc2c(C)noc2C)c1 | -7 | -23 | 3.6 | 1.7 | 0.6 | 8 | 0.66 | ? | i | nt
O=C(NC(=S)Nc1ccc2c(c1)OCCO2)c1cccc(Br)c1 | nt | nt | nt | 1.5 | -3.6 | 1 | 0.67 | nt | nt | -33
CCOc1ccc(N(CC(=O)NCCc2ccccc2)C(=O)CCC(=O)Nc2cc(C)ccn2)cc1 | 2 | 6 | 2.8 | 2.8 | -0.9 | -6 | 0.65 | 0.3 | i | 12
O=C(c1cc(COc2ccccc2)on1)N1CCCC(OCc2cccnc2)C1 (centres undefined) | 3 | -1 | -0.6 | 4.8 | 0.3 | 4 | 0.63 | 1.0 | i | 5
O=[N+]([O-])c1ccc(Cl)c(S(=O)(=O)Nc2ccc(-c3ccc(N4CCCC4)nn3)cc2)c1 | -21 | -24 | 19 | 5.9 | 0.2 | -1 | 0.64 | -1.0 | i | 6
O=C(Cc1ncc(C(F)(F)F)cc1Cl)Nc1ccc(F)cc1 | nt | nt | nt | 3.8 | 1.6 | -2 | 0.72 | nt | nt | 4
CCn1cnc2c1c(=O)n(Cc1csc(-c3ccccc3)n1)c(=O)n2Cc1ccccc1 | nt | nt | nt | 0.2 | -0.3 | -1 | 0.69 | nt | nt | 28
CC1CCN(S(=O)(=O)c2ccc3[nH]cc(C(=O)NCCN4CCOCC4)c(=O)c3c2)CC1 | 3 | 12 | 2.4 | 2.3 | -0.5 | -2 | 0.69 | nt | nt | 4
COc1cc(C(=O)Nc2cc3c4c(c2)CC(=O)N4CCC3)cc(OC)c1OC | 0 | -3 | 0.4 | -0.9 | 0.2 | -4 | 0.69 | -11 | i | -5
Cc1ccccc1NC(=O)COc1ccc(S(=O)(=O)N2CCCC2)cc1C | 4 | 12 | -2.0 | 3.4 | -1.1 | -3 | 0.73 | -0.7 | i | 5
Cc1cc(NC(=O)COC(=O)c2ccc(OC(F)(F)F)cc2)no1 | 1 | 11 | 0.1 | 2.2 | 2.4 | -6 | 0.67 | -0.8 | i | nt
Cc1ccc(C(=O)NC=C(Cl)Cl)cc1 | nt | nt | nt | 4.1 | -1.2 | -4 | 0.66 | nt | nt | -17
CC(=O)c1ccc(OCC(O)Cn2nnc3ccccc32)cc1 (centres undefined) | -1 | -2 | -6.3 | 4.0 | 0.5 | -2 | 0.67 | 4.1 | i | 1
COc1ccc(C2=CC(c3cc(OC)c(OC)c(OC)c3)NC(=S)N2)cc1 (centres undefined) | nt | nt | nt | -49 | -0.8 | -3 | 0.67 | nt | nt | -3
CC(C)CNS(=O)(=O)c1ccc(S(=O)(=O)N2CCN(C3CCCC3)CC2)cc1 | 6 | 2 | -1.9 | 2.3 | -0.2 | 2 | 0.66 | -4.0 | i | -4
COc1ccc(NS(=O)(=O)c2cc(NC(=O)[C@H](C)NC(N)=O)ccc2N2CCCC2)cc1 | -6 | 2 | -4.2 | -0.4 | 0.0 | 0 | 0.69 | 4.6 | i | nt

Screening results as filed in PubChem.
